H5N1 CPE: antiviral screen in MDCK cells, H5N1 avian flu. actives 0.07% (n = 96,000). inhibition, % at 50 µM. cytopathic effect, luminescence, 72 h; hits give high values; no value below 0 was filed and about half of the inactive calls have no number; reference of the scale not given here; in the data active = inhibition above about 25%
* = called active by the depositor; i = inactive. Only part of the results is shown, so the mix of outcomes need not match the whole.

Start of the data: the first 16 entries, to show the layout:
| mol | H5N1 CPE |
| --- | --- |
| O=C(Nc1nc2n(n1)C(c1ccc(Cl)cc1)CC(c1ccc(Cl)cc1)N2)c1ccco1 (stereo unspecified) | i |
| COC(=O)c1ccc(/C=N/NC(=O)CC(=O)NC(C)C)cc1 | 0.3 |
| COc1ccccc1-c1ccc(=O)n(CC(=O)Nc2ccc(C(=O)N3CCCC3)cc2)n1 | 0.3 |
| N#C/C(C(N)=O)=C1/CCc2ccccc2N1 | 1.9 |
| CC1(C)Cc2ccccc2C(Nn2cnnc2)=N1 | 0.1 |
| CC(C)(C)NCC(O)COc1ccccc1C(=O)CCc1ccccc1 (stereo unspecified) | 0.8 |
| Cc1ccc(/C=C(\C#N)c2nc3ccccc3[nH]2)s1 | 1.0 |
| CS(=O)(=O)N(Cc1ccc(F)cc1)Cc1nc2ccccc2c(=O)[nH]1 | i |
| O=C(O)CC1(CC(=O)Nc2ccc3ccccc3c2)CCCCC1 | i |
| Nc1nc2ccccc2n1CCOc1ccccc1Cl | i |
| CC(NC(N)=O)C12CC3CC(CC(C3)C1)C2 (stereo unspecified) | 0.2 |
| CCSc1nnc(NC(=O)c2csc3c2CCCC3)s1 | i |
| CC(=O)c1c(C)[nH]c(C(=O)Nc2ccc3c(c2)OCCO3)c1C | i |
| CC(C)C(c1nnnn1Cc1ccc2c(c1)OCO2)N1CCN(c2ccccc2)CC1 (stereo unspecified) | i |
| CNC(=O)C1CC(=O)N(Cc2ccc(OC)c(OC)c2)C(=Nc2ccc(OC)cc2)S1 (stereo unspecified) | 1.0 |
| N#C/C(=C/c1ccc(N2CCCCCC2)o1)c1ccc(Cl)cc1 | i |

Results, previewed entries included:
| mol | H5N1 CPE |
| --- | --- |
| O=C(Nc1nc2n(n1)C(c1ccc(Cl)cc1)CC(c1ccc(Cl)cc1)N2)c1ccco1 (stereo unspecified) | i |
| COC(=O)c1ccc(/C=N/NC(=O)CC(=O)NC(C)C)cc1 | 0.3 |
| COc1ccccc1-c1ccc(=O)n(CC(=O)Nc2ccc(C(=O)N3CCCC3)cc2)n1 | 0.3 |
| N#C/C(C(N)=O)=C1/CCc2ccccc2N1 | 1.9 |
| CC1(C)Cc2ccccc2C(Nn2cnnc2)=N1 | 0.1 |
| CC(C)(C)NCC(O)COc1ccccc1C(=O)CCc1ccccc1 (stereo unspecified) | 0.8 |
| Cc1ccc(/C=C(\C#N)c2nc3ccccc3[nH]2)s1 | 1.0 |
| CS(=O)(=O)N(Cc1ccc(F)cc1)Cc1nc2ccccc2c(=O)[nH]1 | i |
| O=C(O)CC1(CC(=O)Nc2ccc3ccccc3c2)CCCCC1 | i |
| Nc1nc2ccccc2n1CCOc1ccccc1Cl | i |
| CC(NC(N)=O)C12CC3CC(CC(C3)C1)C2 (stereo unspecified) | 0.2 |
| CCSc1nnc(NC(=O)c2csc3c2CCCC3)s1 | i |
| CC(=O)c1c(C)[nH]c(C(=O)Nc2ccc3c(c2)OCCO3)c1C | i |
| CC(C)C(c1nnnn1Cc1ccc2c(c1)OCO2)N1CCN(c2ccccc2)CC1 (stereo unspecified) | i |
| CNC(=O)C1CC(=O)N(Cc2ccc(OC)c(OC)c2)C(=Nc2ccc(OC)cc2)S1 (stereo unspecified) | 1.0 |
| N#C/C(=C/c1ccc(N2CCCCCC2)o1)c1ccc(Cl)cc1 | i |
| Cc1ccc(-c2cccc(NC(=O)C3C(C(=O)O)[C@@H]4C=C[C@H]3C4)c2)o1 (stereo partly specified) | i |
| CCCCCNC(=O)C(C)Sc1ccc(Cl)cc1 (stereo unspecified) | 0.0 |
| CCCc1c(C)c2ccc(OCC(C)=O)cc2oc1=O | i |
| Cc1cc(C)cc(N(CC(=O)NC2CCCCC2)C(=O)c2ccc(C)s2)c1 | 1.4 |
| COc1cccc(/C=N/n2c(C)nc3ccccc32)c1OC | i |
| CCOC(=O)NCc1ccc(CNC(=O)OCC)cc1 | i |
| NC(=O)NC(Cc1ccccc1)c1ccccc1 (stereo unspecified) | 0.1 |
| COc1ccc(OC)c(NC(=O)c2nnn(Cc3ccccc3C)c2N)c1 | i |
| CCN1CCN(S(=O)(=O)c2ccc(Cl)nc2)CC1 | 0.8 |
| CC(=O)N(C)c1ccc(OCC(O)Cn2c3ccc(Cl)cc3c3cc(Cl)ccc32)cc1 (stereo unspecified) | i |
| CCCC(=O)Nc1c(-c2ccc(OC)cc2)c(=O)c2ccccc2n1C | i |
| CCOC(=O)c1c(CN2CCCCC2)oc2ccc(O)cc12 | 2.3 |
| COc1ccc(C(=O)CSc2nnc(-c3cc(C)cc(C)c3)o2)cc1 | i |
| CCn1nc(C)c(NC(=O)CCSc2nc(-c3ccco3)cc(C(F)(F)F)n2)c1C | i |

Other records:
| mol | H5N1 CPE |
| --- | --- |
| O=C1CC(N2CC=C(c3ccccc3)CC2)C(=O)N1c1ccc(F)cc1 (stereo unspecified) | 1.0 |
| CCCCn1c(/N=C/c2cc(OC)ccc2O)nc2ccccc21 | i |
| CCn1cc2c(c1-c1cccc(C)c1)c(=O)n(C)c(=O)n2C | i |
| C=CCN(CC=C)C(=O)c1ccccc1NC(=O)c1ccccc1C | 0.7 |
| COc1ccc(-n2nnc3c(SCC(=O)OCc4ccccc4)ncnc32)cc1 | i |
| CCOn1c(=O)c(-c2ccc(OC)c(OC)c2)[n+]([O-])c2ccccc21 | i |
| COc1cccc2c(=O)cc(C)n(CC(=O)Nc3ccc(C)c(C)c3)c12 | 1.4 |
| COc1ccc(CCNS(=O)(=O)c2cccc(C)c2)cc1OC | i |
| Cc1cc(N2CCC(C)CC2)nc2cccc(O)c12 | 5.5 |
| COc1ccc(CCNC(=O)CSc2nc(O)c(CC(C)C)c(=O)[nH]2)cc1OC | 0.5 |
| Cc1ccc(C)c(NC(=O)C(Sc2nncn2C)c2ccccc2)c1 (stereo unspecified) | i |
| O=C(NCc1ccco1)c1csc(Nc2ccccc2Cl)n1 | 0.8 |
| COc1ccc(C(=O)Cn2nnc(-c3ccccc3-n3cnnn3)n2)cc1 | 0.4 |
| COCCNC(=O)c1ccccc1NC(=O)c1ccccc1N(C)S(=O)(=O)c1ccccc1 | i |
| CN(C)/C=C(\C#N)c1nc2ccccc2[nH]1 | 1.0 |
| CCn1c(SCc2ccccc2)nnc1-c1cccs1 | 5.6 |
| COc1ccc(OC)c(-n2nnnc2SCC(=O)O)c1 | 0.1 |
| Cc1ccc(OCC(=O)N2CCN(c3nnc(-c4ccccc4)c4ccccc34)CC2)cc1 | i |
| CCOc1ccc(NS(=O)(=O)c2ccc3[nH]cc(C(=O)N(CC)CC)c(=O)c3c2)cc1 | i |
| O=C(c1ccc(-c2nnc(Nc3ccccc3)c3ccccc23)cc1)N1C[C@H]2C[C@H](C1)c1cccc(=O)n1C2 | 1.1 |
| Cc1ccc(CSc2nnc(-c3ccc(S(=O)(=O)N4CCCC4)cc3)o2)cc1 | i |
| O=C(OCn1nnc2ccccc2c1=O)c1cccs1 | 0.0 |
| CCOc1cc(CNCCc2ccc(S(N)(=O)=O)cc2)ccc1OCC(=O)NC1CCCCC1 | i |
| O=C(Nc1nnc(COc2ccc(Cl)cc2)s1)c1ccc([N+](=O)[O-])cc1 | i |
| O=C(NCCCN1CCCC1=O)c1ccccc1NS(=O)(=O)c1ccc(F)cc1 | 0.1 |
| O=C(CN(Cc1ccccc1F)S(=O)(=O)c1ccc(Cl)cc1)NCCC1=CCCCC1 | i |
| COc1ccc(S(=O)(=O)N2CCCCC2)cc1Br | 1.1 |
| O=C(C=C1CCN(c2ncc(C(F)(F)F)cc2Cl)CC1)NNC(=O)Nc1ccc(Cl)cc1 | i |
| CCN(CC)C(=O)c1ccc(COc2ccccc2Cl)cc1 | i |
| Cc1ccc(Cn2nc(-c3ccccc3)nc2-c2ccccc2)cc1 | i |

Next part:
| mol | H5N1 CPE |
| --- | --- |
| O=C(NCc1ccco1)C(Cc1ccccc1)N1C(=O)c2ccccc2C1=O (stereo unspecified) | 2.4 |
| CCCCCc1nnc(NC(=O)CS(=O)(=O)Cc2ccccc2)s1 | 0.4 |
| c1ccc(-c2nnc3sc(CN4CCC5(CC4)OCCO5)cn23)cc1 | 1.6 |
| Cc1nc2ccccc2c2oc(C(=O)NCC3COc4ccccc4O3)cc12 (stereo unspecified) | 0.7 |
| COC(=O)C1CCN(C(=O)Cc2ccc(OC)c(OC)c2)CC1 | i |
| CCn1c(CSc2nc3ccccc3[nH]2)n[nH]c1=S | i |
| COC(=O)c1c(=O)n(O)c2ccc(OC)cc2[n+]1[O-] | 0.0 |
| Cn1c(CSCc2ccc(Cl)c(Cl)c2)nnc1SCC(=O)Nc1nccs1 | 0.3 |
| COC(=O)C1=C(C)NC2=C(C(=O)CCC2)C1c1cn(Cc2ccc(Cl)cc2Cl)nc1-c1ccccc1 (stereo unspecified) | i |
| O=C1CC(C(=O)N2CCOCC2)C2(CCCCC2)O1 (stereo unspecified) | 0.2 |
| CCOc1cc(CN2CCSCC2)ccc1O | i |
| Cc1nnc(SCC(=O)N2CCN(S(=O)(=O)c3ccccc3)CC2)[nH]c1=O | i |
| Cc1ccc(-c2nc(CSCC(=O)NCCCN3CCOCC3)c(C)o2)cc1 | 0.0 |
| COCCN1Cc2cccc(C(=O)NCc3ccccn3)c2C1=O | 0.8 |
| Fc1cccc(CSc2nc3ncccc3[nH]2)c1 | i |
| CC(=O)OC1C2CCCC1C(N1CCCC1)CC2 (stereo unspecified) | i |
| Cc1nc(SCC(=O)NC(=O)NCc2ccccc2)nc(C)c1C | i |
| Cc1cc(Br)c2c(c1)=C(c1sc(N3CCCCCC3)nc1O)C(=O)N=2 | i |
| CC(C(=O)NCc1cccs1)n1cccc1 (stereo unspecified) | 0.6 |
| COc1ccc(OCC(=O)N2CCN(Cc3c[nH]c4ccccc34)CC2)cc1 | i |
| CC(C)c1ccc(OCC(=O)N2CCN(C)CC2)c(Br)c1 | 1.2 |
| Cc1ccccc1NS(=O)(=O)c1cc(S(C)(=O)=O)ccc1Cl | 1.2 |
| CCOc1ccccc1NC(=O)CSc1ncnc2c1oc1ccccc12 | 3.4 |
| COc1cccc(C(=O)N/N=C/c2cn[nH]c2-c2ccc(OC)cc2OC)c1 | 0.8 |
| O=C(NCc1ccccc1)C1CCN(S(=O)(=O)c2cccc3cccnc23)CC1 | 0.8 |
| CC(C)OCCCNC(=O)c1c(N)n(/N=C/c2cccs2)c2nc3ccccc3nc12 | i |
| COCc1cc(=O)n2[nH]c(C(F)(F)F)nc2n1 | i |
| CCOC(=O)CSc1ncnc2c1nnn2-c1ccc(F)cc1 | 0.8 |
| CSc1nc2ccc(NC(=O)C3CC(=O)N(Cc4ccco4)C3)cc2s1 (stereo unspecified) | i |
| CCCCn1nnnc1SCC(=O)c1ccc(C)c(C)c1 | i |

Other results follow:
SMILES	H5N1 CPE
O=C(c1ccc([N+](=O)[O-])cc1)N(Cc1ccc(Br)cc1)N1C(=O)CCCC1=O	i
CCOC(=O)c1cccnc1SCc1cc(=O)n2ccccc2n1	0.8
CCC(C)NC(=O)CSC1=Nc2ccccc2C2=NC(CCC(=O)NCc3ccco3)C(=O)N12 (stereo unspecified)	i
O=C1[C@@H]2CSCN2C(=O)CN1CCc1cccc(F)c1	0.7
CCc1ccc(OCC(O)CNC(C)(C)C)cc1 (stereo unspecified)	i
Cc1occc1C(=O)N/N=C/c1c[nH]c2ccccc12	1.4
CC(C)CNC(=O)c1cc(-c2ccc(Cl)c(Cl)c2)on1	1.3
CC1CN(O)C2CCc3nonc3C12O (stereo unspecified)	i
CNc1cc(C)nc(-n2nc(C)cc2C)n1	0.6
CCCCc1ccc(NC(=O)C2CCCO2)cc1 (stereo unspecified)	i
c1ccc2nc(-c3ccncc3)ccc2c1	1.5
Cc1ccnc(N2CCC(C(=O)Nc3ccc4c(c3)CCC4)CC2)n1	i
CN1C(=O)C(=O)N(CC(=O)N2CCc3ccccc32)C1=O	i
COc1ccccc1NC(=O)C1(C)Cc2ccccc2C(=O)O1 (stereo unspecified)	i
Cc1cc(C)cc(OCc2ccc(C(=O)N3N=C(C(F)F)CC3(O)C(F)F)o2)c1 (stereo unspecified)	i
Cc1c(NC(=O)OCc2ccccc2)c(=O)n(-c2ccccc2)n1C	0.2
O=C(CSc1ncc(-c2ccccc2)n1-c1ccccc1)NCc1ccco1	4.0
CCOc1ccc(NC2c3ccccc3C(=O)N2Cc2ccco2)cc1 (stereo unspecified)	i
COCc1cc(C2C(C(=O)c3ccco3)=C(O)C(=O)N2CCOCCO)ccc1O (stereo unspecified)	0.2
CCn1c(C2CC(=O)N(Cc3ccccc3)C2)nc2ccccc21 (stereo unspecified)	0.4

2 entries picked at random from those above:
SMILES	H5N1 CPE
CNc1cc(C)nc(-n2nc(C)cc2C)n1	0.6
CC1CN(O)C2CCc3nonc3C12O (stereo unspecified)	i

(list continues)
SMILES	H5N1 CPE
CCc1cccc(Oc2nn[nH]n2)c1	0.0
Cc1ccc(Sc2c(C(=O)Nc3ccc(F)cc3F)c(C(F)(F)F)nn2C)cc1	0.8
CC(=O)NCc1cccc(CNC(C)=O)n1	i
O=C(COC(=O)C(O)c1ccccc1)NC12CC3CC(CC(C3)C1)C2 (stereo unspecified)	2.4
Clc1ccc2[nH]cc(-c3nnnn3-c3ccccc3)c2c1	i
CCC(c1nnnn1C(C)(C)C)N(Cc1ccco1)Cc1cc2cccc(C)c2[nH]c1=O (stereo unspecified)	i
COC(=O)c1cc(NC(=O)Nc2ccccc2OC)cc(C(=O)OC)c1	i
CCC(Sc1ncnc2sc(C)c(C)c12)C(=O)OC (stereo unspecified)	i
COc1cccc(N(C(=O)c2ccco2)c2nc(-c3sc(NC(=O)c4ccco4)nc3C)cs2)c1	i
O=[N+]([O-])c1ccc(Oc2ccc(F)cc2)c2ccncc12	1.3
CC1CCCC(NC(=O)COC(=O)Cc2ccsc2)C1C (stereo unspecified)	i
CC(C)NC(=S)Nc1ccc(Oc2ccccc2)cc1	0.7
O=C(COc1ccc(Cl)cc1Cl)N/N=C/CCc1ccccc1	1.5
CCN(CC)C(=O)c1c2c(nc3ccccc13)-c1ccccc1CC2	0.8
NC1CCCCC1N=Cc1c(O)n(CCc2ccc(F)cc2)c(=O)[nH]c1=O (stereo unspecified)	i
CCOC1CS(=O)(=O)CC1OCC (stereo unspecified)	0.6
Cc1nn(-c2ccccc2)c2nc(-c3ccncc3)cc(C(=O)NCc3ccco3)c12	1.3
CCc1ccc(CNC(=O)CN2C(=O)COc3ccccc32)cc1	i
Nc1nc(CSc2n[nH]c(-c3ccccc3)n2)nc(Nc2ccccc2)n1	i
CCCCCn1c(N)c(-c2nc3ccccc3s2)c2c([N+](=O)[O-])nn(C)c(=O)c21	6.2
O=C(Nc1ccccc1)c1ccc2c(c1)OCO2	0.8
